# Compound activity from PubChem BioAssay.
# YopH PTP inh: YopH (Yersinia) phosphatase inhibition | fluorescence Ex485/Em525 | inhibition, %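 (about 10 µM by stock and volumes)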 | 140,000 tested, 0.16% active | AID 898;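 active = inhibition of 50% or more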;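 note: controls were vehicle for no effect and minimum signal wells for full effect; inactives centre near -20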
# Mtb growth: M. tuberculosis H37Rv growth inhibitors, H37Rv strain (AID 1626); M. tuberculosis H37Rv growth inhibition; higher % means a stronger effect; one-dose inhibition, % at 10 µM; IC50 in µM for titrated hits; 220,000 tested, 0.95% active;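 active = confirmed in a dose series; inconclusive = inhibition above 80% but not taken into the dose series; inactive = below 80% or under 30% at every dose of the series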;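 note: bacteria incubated seven days before Alamar blue readout; 0% = bacteria only wells and 100% = bacteria with antibiotic wells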
# RecA intein inh: inhibitors of M. tuberculosis RecA intein splicing. P9WHJ3. 290,000 tested, 0.75% active. AID 2221. cell-free RecA intein splicing, fluorescence. inhibition, %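 (about 9 µM by stock and volumes)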; in the data active = inhibition above about 30%; inconclusive = no clear call, values can overlap the other calls;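 note: 0% = vehicle wells and 100% = reference inhibitor control wells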
# Target sequence (P9WHJ3 whole entry, looked up): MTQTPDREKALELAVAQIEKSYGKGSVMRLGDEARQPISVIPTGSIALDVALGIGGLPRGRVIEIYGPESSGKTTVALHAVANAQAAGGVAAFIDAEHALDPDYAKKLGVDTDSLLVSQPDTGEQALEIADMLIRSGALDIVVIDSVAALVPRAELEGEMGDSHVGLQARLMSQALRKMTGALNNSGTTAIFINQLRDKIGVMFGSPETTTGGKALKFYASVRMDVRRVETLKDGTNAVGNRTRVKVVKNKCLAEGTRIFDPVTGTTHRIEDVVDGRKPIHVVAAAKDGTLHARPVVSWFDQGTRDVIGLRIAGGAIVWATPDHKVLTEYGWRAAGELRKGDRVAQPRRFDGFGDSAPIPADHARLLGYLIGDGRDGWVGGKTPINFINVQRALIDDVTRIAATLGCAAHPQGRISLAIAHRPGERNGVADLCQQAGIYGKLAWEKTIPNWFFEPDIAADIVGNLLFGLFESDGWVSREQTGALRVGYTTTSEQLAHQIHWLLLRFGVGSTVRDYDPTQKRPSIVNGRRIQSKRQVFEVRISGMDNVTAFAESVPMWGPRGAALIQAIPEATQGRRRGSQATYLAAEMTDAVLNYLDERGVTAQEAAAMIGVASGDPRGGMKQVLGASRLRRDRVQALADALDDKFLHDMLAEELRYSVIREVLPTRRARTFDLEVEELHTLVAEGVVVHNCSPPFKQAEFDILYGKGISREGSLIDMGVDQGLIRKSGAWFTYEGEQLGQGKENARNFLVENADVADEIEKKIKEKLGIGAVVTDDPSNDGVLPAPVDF
# Arbovirus anti: blocks arbovirus infection; arbovirus infection cell-based antiviral screen; inhibition, % at 10 µM; 200,000 tested, 0.37% active; AID 1251;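 active = inhibition from about 30%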;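 note: bluetongue infection of BSR cells; cell survival read as ATP light after 72 h; 0% = infected wells without compound and 100% = uninfected wells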
# Mtb bLac sens: beta-lactam sensitization of Mtb H37Rv | 330,000 tested, 0.27% active | AID 434955 | inhibition, % at 25 µM | M. tuberculosis H37Rv growth with meropenem, percent inhibition; hits of this screen are not shown here;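 active = about 74% or more and at least 40 points above the plate without the antibiotic, then above 30% in a dose series; inconclusive = first-round hits that could not be retested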;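 note: growth measured after seven days incubation then overnight dye step; 0% = bacteria only wells and 100% = bacteria with antibiotic; twin plates without the antibiotic show which effects depend on it; some results filed as inactive read as strong as hits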
# * marks the source's active call; other numbers are inactive results; u = inconclusive; x = no result given.
# Results follow in this order: YopH PTP inh | Mtb growth | RecA intein inh | Arbovirus anti | Mtb bLac sens
> O=c1[nH]c(=O)n([C@H]2C[C@H](O)[C@@H](CO)O2)cc1F
 : -43 | 3% | -1.6 | -29 | 3
> CC(C)CC(C(=O)NCC1CCCO1)N(C(=O)Cn1nnc(-c2ccc(F)cc2)n1)c1ccccc1F (stereo not drawn)
 : -32 | -6% | 0.1 | -14 | 8
> O=C(COC(=O)C(Cc1ccccc1)NC(=O)c1ccccc1)c1ccccc1 (stereo not drawn)
 : -20 | -4% | 0.1 | -1 | 3
> O=C(CCC(=O)N/N=C/c1ccc(Br)s1)NCc1ccccc1
 : -3 | 3% | -0.2 | 12 | 1
> Cc1nc(CN(C)C(=O)c2cc(COc3ccc4ncccc4c3)on2)cs1
 : x | 8% | 0.7 | 25 | 15
> COc1cc(C(=O)NCc2ccc(-c3nc4ccccc4o3)cc2)cc(OC)c1OC
 : -50 | -5% | -1.2 | -8 | 3
> Cc1[nH]c2ccc(Br)cc2c(=O)c1CN1CCCCC1
 : -33 | -4% | 0.9 | 11 | -6
> CN(C1CCCCC1)C(CNS(=O)(=O)c1ccccc1)c1ccccc1 (stereo not drawn)
 : x | x | -0.8 | x | -4
> COc1ccc(-c2nsc3c(N4CCCCC4C)ncnc23)cc1 (stereo not drawn)
 : x | -15% | 11 | 9 | 97
> CC(=O)NCCC(Cc1ccccc1)c1ccco1 (stereo not drawn)
 : -22 | -4% | -2.0 | 6 | -3
> COc1cccc(Cn2nnc(C(=O)NCc3ccc4c(c3)OCO4)c2N)c1
 : x | 12% | -0.3 | -8 | 1
> COc1ccc(CCNC(=O)c2ccccc2OCc2ccccc2)cc1
 : x | x | 17 | x | 4
> Nc1nc(-c2ccco2)nn1S(=O)(=O)c1ccccc1
 : x | -3% | -2.9 | 4 | -1
> O=C(N=C1SC2CS(=O)(=O)CC2N1c1cccc(Cl)c1Cl)C1CC1 (stereo not drawn)
 : x | x | 2.4 | x | 4
> COc1ccc(CCNC(=O)C(Sc2ccccn2)c2ccccc2)cc1OC (stereo not drawn)
 : x | 5% | 1.4 | x | -4
> Cc1ccccc1Nc1nc(NCc2ccco2)c2ccccc2n1
 : x | 2% | 28 | -25 | 22
> O=C(CCc1cnccn1)NC1CCCc2c1cnn2-c1ccc(F)cc1F (stereo not drawn)
 : x | 4% | -0.3 | 0 | 4
> CCOc1ccc(C(=O)Nc2ccncc2)cc1
 : 2 | 9% | 0.4 | 0 | -15
> COc1ccc2[nH]c(=O)c(CN(c3ccccc3)S(=O)(=O)c3ccccc3)cc2c1
 : x | x | -0.2 | x | -12
> Cc1ccc(-n2nnnc2SCc2nnc(-c3ccccc3Br)o2)c(C)c1
 : -47 | 7% | 5.5 | 3 | -2
> Cn1cc(CN2CCN(Cc3cccnc3)CC2)c(-c2ccc3c(c2)OCCO3)n1
 : x | -2% | -2.0 | 2 | 1
> COc1ccc(-c2[nH]ncc2CN2C[C@@H]3CCC[C@H]2C3)c(F)c1
 : x | -4% | 0.7 | 9 | -9
> CC(=O)c1cc2c(cc1NC(=O)CN1CCN(c3ccc(F)cc3)CC1)OCO2
 : -9 | -7% | 1.6 | 11 | 42
> COc1c(C)cc(C(=O)C2CCCN(C(=O)/C=C/c3ccccn3)C2)cc1C (stereo not drawn)
 : x | 4% | 0.5 | 1 | 35
> N#C/C(=C\c1cccc([N+](=O)[O-])c1)C(=O)Nc1cccnc1
 : x | 7% | x | -3 | -9
> CCOc1cc(CNc2ccc(N3CCCC3)cc2)cc(Cl)c1OC
 : 74* | 6% | 1.6 | -15 | 64
> Cc1cccc(OCc2nc(C#N)c(N3CCCC3)o2)c1
 : x | 2% | -4.2 | x | 2
> COC(=O)CCc1c(C)c(C(=O)c2cc(OC)c(OC)c(OC)c2)c2ccccn12
 : x | x | 1.0 | x | 0
> COc1ccc(C2SC[C@@H](C(=O)O)N2C(C)=O)cc1 (stereo partly drawn)
 : -14 | -5% | 1.1 | 11 | -16
> CCS(=O)(=O)C1=NSC2=NC(=O)/C(=C\c3ccc(OS(=O)(=O)c4ccccc4)cc3)C(=N)N21
 : x | x | 11 | x | -8
> COC(=O)c1ccc(OC(=O)CCN2C(=O)C3C4c5ccccc5C(c5ccccc54)C3C2=O)cc1 (stereo not drawn)
 : -23 | 3% | 0.5 | 0 | 84
> CCOc1ccc(NC(=O)CCc2nnc3ccc(N4CCN(C)CC4)nn23)cc1
 : x | x | 0.4 | x | -5
> CCOC(=O)N/N=C\c1cccc(OC)c1
 : x | -4% | 0.2 | -6 | 4
> COc1ccc(NC(=O)COC(=O)[C@@H]2CCCN2C(=O)c2cccs2)cc1
 : 4 | -10% | 0.3 | 10 | -15
> Cc1nn(-c2ccccc2)c(Cl)c1/C=N/NC(=O)CCNc1n[nH]c(=O)[nH]c1=O
 : x | -11% | 4.3 | x | 2
> O=C(NCCO)c1cccc(Cl)c1
 : -25 | -7% | -2.3 | 3 | -8
> COCCOc1cc(NC(=O)c2ccccc2)c(Cl)cc1Cl
 : x | 1% | -2.0 | 21 | -15
> COCCCNc1nc2ccccc2nc1NS(=O)(=O)c1ccccc1
 : x | 8% | 0.0 | 3 | -1
> O=C1c2cccnc2C(=O)N1Cc1ccc(S(=O)(=O)NCc2ccco2)s1
 : x | x | -4.9 | x | 0
> CCc1nnc(NC(=O)CC(CN(C)S(=O)(=O)c2ccccc2)c2ccccc2)s1 (stereo not drawn)
 : -37 | 3% | 1.1 | 7 | -1
> C=CCNC(=O)CC12CC3CC(C1)CC(CC(=O)NCC=C)(C3)C2
 : x | 4% | -4.8 | -3 | -6
> Cc1cc(C)n(S(=O)(=O)c2ccc(Cl)cc2)n1
 : x | x | -1.9 | x | 0
> COC(=O)c1cc(Br)c(=O)n(CCN(C(C)C)C(C)C)c1
 : 9 | -13% | 2.0 | 2 | -6
> CCCN(CCC)C(=O)c1ccc2c(c1)S(=O)(=O)c1ccccc1C2=O
 : x | x | 1.2 | x | u
> CC1(C)Cc2c(sc3c2c(N)nc(=S)n3Cc2ccccc2)CO1
 : x | 2% | -1.7 | -6 | -5
> Cc1ccc(NC(=O)C2CCN(S(=O)(=O)c3c(C)[nH]c(=O)[nH]c3=O)CC2)cc1
 : -34 | -3% | -0.5 | -17 | 7
> CCOC(=O)c1c(C2CC2)csc1NC(=O)COC(=O)c1cc(OC)c(OC)cc1[N+](=O)[O-]
 : -23 | 1% | 0.2 | -9 | 0
> O=S(=O)(N/N=C\c1ccc(-c2ccccc2Cl)o1)c1ccccc1
 : -24 | 3% | 6.4 | -8 | 1
> C#Cc1ccc([C@H]2C=C(C(=O)NC3CC3)O[C@@H](OCC)[C@@H]2CCCO)cc1
 : x | -9% | -0.1 | 2 | 6
> CCOc1cc(/C=N/NC(=O)c2ccc(=O)n(C)c2)ccc1O
 : x | 4% | -7.5 | -2 | -1
> O=C(COC(=O)CCc1nc2ccccc2s1)Nc1ccc(S(=O)(=O)N2CCOCC2)cc1
 : x | -11% | 0.8 | 2 | -9
> C/C(=N\OC(=O)Nc1ccccc1)c1cnn(-c2cc(C(F)(F)F)cc(C)n2)c1C
 : x | x | 1.5 | x | -1
> CCOC(=O)c1ccc(NC(=O)CSc2nc(NC(=O)c3ccccc3)c3c(C)c(C)oc3n2)cc1
 : -35 | 9% | 0.2 | 6 | -3
> Cc1cc(Nc2ccccc2C(=O)O)n(-c2ccc([N+](=O)[O-])cc2)n1
 : x | -9% | 2.4 | x | -7
> O=C(Nc1ccc([N+](=O)[O-])cn1)C1CC1
 : -13 | 5% | -4.1 | 7 | -4
> Nn1c(SCC(=O)NCC2CCCO2)nnc1-c1ccc(OC(F)F)cc1 (stereo not drawn)
 : x | x | 0.1 | x | -9
> Cc1ccccc1N1CCN(CC(=O)Nc2nc(C)c(C(=O)N(C)C)s2)CC1
 : x | x | -0.8 | x | -5
> CC(=O)Nc1ccc2oc(-c3ccccc3Br)nc2c1
 : -11 | x | -0.5 | -1 | 3
> COc1ccccc1Nc1nnc(SCc2cc(=O)n3ccsc3n2)s1
 : x | 2% | x | -20 | -1
> Cc1cccc(C)c1N(CC(=O)N(C)Cc1ccccc1)S(C)(=O)=O
 : x | x | 3.1 | x | 2

# Compound profiles (already shown). Order of screens: YopH PTP inh	Mtb growth	RecA intein inh	Arbovirus anti	Mtb bLac sens
# CCCN(CCC)C(=O)c1ccc2c(c1)S(=O)(=O)c1ccccc1C2=O reads x	x	1.2	x	u
# COc1ccccc1Nc1nnc(SCc2cc(=O)n3ccsc3n2)s1 reads x	2%	x	-20	-1
# Cc1ccccc1N1CCN(CC(=O)Nc2nc(C)c(C(=O)N(C)C)s2)CC1 reads x	x	-0.8	x	-5
# Cc1cc(Nc2ccccc2C(=O)O)n(-c2ccc([N+](=O)[O-])cc2)n1 reads x	-9%	2.4	x	-7

# The results go on.
# Results follow in this order: YopH PTP inh | Mtb growth | RecA intein inh | Arbovirus anti | Mtb bLac sens
> COc1ccc(CN2CC(=O)N(c3cc(Cl)ccc3C)C2=S)cc1OC
 : x | x | -1.0 | x | 5
> Cc1ccc(Nc2ccncc2S(N)(=O)=O)cc1
 : x | x | 1.8 | x | -4
> O=C(Nc1ccc2c(c1)OCO2)c1n[nH]c(=O)c2ccccc12
 : x | 2% | 5.2 | x | -1
> Cc1ccccc1N(CC(=O)N/N=C/c1cc(Br)c(C)o1)S(C)(=O)=O
 : -3 | 8% | 1.2 | 11 | 3
> Cc1ccccc1Cn1ccc(-c2ccc3c(c2)OCO3)n1
 : -24 | -1% | 9.6 | -11 | 3
> Cc1ccsc1S(=O)(=O)N1CCCC(CCC(=O)NCc2ccccc2F)C1 (stereo not drawn)
 : x | -4% | 2.3 | 0 | 1
> O=C1CCc2cc(NS(=O)(=O)c3ccc(Cl)cc3)cc3c2N1CC3
 : x | x | -5.4 | x | -9
> CC(C)c1ccc(Nc2nnns2)cc1
 : x | 2% | 4.6 | x | -8
> NC(=O)C1CCN(C(=O)CSc2ncccn2)CC1
 : x | -6% | 13 | 10 | 0
> C#CCOCCOCCOCCNc1nc(N2CCN(C(=O)[C@H]([C@@H](C)CC)n3cc([C@@H](N)CO)nn3)CC2)nc(N2CCN(C(=O)[C@H]([C@@H](C)CC)n3cc([C@@H](N)CC(C)C)nn3)CC2)n1
 : x | -11% | -0.6 | 8 | -13
> COCCNC(=O)c1cccc(OC2CCN(Cc3ccc(F)c(OC)c3)CC2)c1
 : x | x | -2.4 | x | -3
> CCC(C)(C)NC(=O)Cc1ccc(OC)c(OC)c1
 : -5 | -3% | 4.0 | 3 | 3
> CC1CCSP(=O)(Oc2ccccc2)O1 (stereo not drawn)
 : x | 7% | 2.2 | x | -4
> O=C(Nc1nccs1)c1ccc(COc2ccc(Cl)cc2)o1
 : -8 | 5% | -1.4 | 6 | 1
> Cc1ccc2[nH]c(=O)c(CC=C(Cl)Cl)c(C)c2c1
 : -40 | -3% | -1.0 | 9 | 5
> COc1ccc(C)cc1NC(=O)C(NCC(O)c1ccccc1)c1ccccc1 (stereo not drawn)
 : x | x | 5.7 | x | -3
> Cc1cc(NC(=O)c2ccccc2)cc(NC(=O)c2ccccc2)c1C
 : x | x | -2.7 | x | 11
> NNc1nnc2c3cc(F)ccc3n(CCc3ccccc3)c2n1
 : x | x | 0.6 | x | 4
> COc1cc(/C=C/C(=O)OCC(=O)Nc2ccccc2Sc2ccc(Cl)cc2)ccc1O
 : -13 | 14% | 36* | -2 | 4
> Cc1ccc(C2CCN(C(=O)Nc3ccccc3)C2)cc1 (stereo not drawn)
 : -41 | -7% | 1.8 | 0 | 34
> NC(=O)CC(NC(=O)c1ccccc1)c1ccc(NC2CCCC2)c([N+](=O)[O-])c1 (stereo not drawn)
 : x | -5% | 1.0 | x | -11
> O=C(CNC(=O)c1ccco1)Nc1cc(Cl)ccc1N1CCOCC1
 : -19 | 0% | 1.1 | 0 | -1
> O=C(c1ccccc1SCc1ccccc1)N1CCCCCC1
 : x | 9% | 3.5 | 2 | 0
> O=C(CSc1ncnc2sc3c(c12)CCCCC3)NCc1ccco1
 : -11 | -14% | 3.6 | -18 | -15
> Cc1cc(=O)oc(C)c1C(=O)Nc1ccccc1F
 : x | 1% | -0.5 | x | -6
> O=c1[nH]c2ccccc2n2cnnc12
 : x | 3% | x | 0 | -2
> COc1ccc(NC(=O)CN2CCN(C3c4ccccc4-c4ccccc43)CC2)cc1
 : 16 | 18% | 12 | -16 | 100
> CC1(C)Cc2c(cnn2-c2ccccc2)C(NC(=O)c2ccoc2)C1 (stereo not drawn)
 : x | x | 6.9 | x | 5
> COc1cccc(OCCOCC(O)CN2CCN(Cc3ccc(Cl)cc3)CC2)c1 (stereo not drawn)
 : -15 | 2% | 1.7 | -1 | -1
> CC(C)NC(=O)C(=O)NNC(=O)C12CC3CC(CC(C3)C1)C2
 : -29 | -1% | 0.2 | 1 | x
> O=C(CSc1ncnc2c1cnn2-c1ccccc1)Nc1ccccc1
 : -24 | 21% | -1.0 | -3 | 26
> Cc1ccc2cc(/C=N/NC(=O)c3ccccc3[N+](=O)[O-])c(Cl)nc2c1
 : x | -1% | -2.4 | -18 | -2

# This is a subset; count on the stated rates, not on these rows.
